# FGF22 binding: FGF22 (human) thermal shift binding. Q9HCT0. recombinant FGF22 thermal shift, SYPRO orange fluorescence; percent of sucrose octasulfate shift, DMSO zero. calls only at 9.99 µM. 1.5% of 340,000 active. AID 651658;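 active = melting point raised past a set limit in the mean and every replicate; inconclusive = no clear call; three in four hits are not shown here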
# AF4-AF9 inh: MLL-AF4/AF9 protein interaction inhibition. P42568. 0.47% of 350,000 active. AlphaScreen, biotin-AF4 peptide binding to FLAG-AF9. inhibition, % at 10 µM;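 active = every replicate reaching a set inhibition limit, whatever the replicate mean, cut at about 25% in these data; inconclusive = mean inhibition reaches that limit but some replicates miss it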;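 also: 0% = plate neutral control median and 100% = total signal loss; the record names both 10 and 1 µM as test concentration; the first replicate is given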
# Target sequence (P42568 whole entry, looked up): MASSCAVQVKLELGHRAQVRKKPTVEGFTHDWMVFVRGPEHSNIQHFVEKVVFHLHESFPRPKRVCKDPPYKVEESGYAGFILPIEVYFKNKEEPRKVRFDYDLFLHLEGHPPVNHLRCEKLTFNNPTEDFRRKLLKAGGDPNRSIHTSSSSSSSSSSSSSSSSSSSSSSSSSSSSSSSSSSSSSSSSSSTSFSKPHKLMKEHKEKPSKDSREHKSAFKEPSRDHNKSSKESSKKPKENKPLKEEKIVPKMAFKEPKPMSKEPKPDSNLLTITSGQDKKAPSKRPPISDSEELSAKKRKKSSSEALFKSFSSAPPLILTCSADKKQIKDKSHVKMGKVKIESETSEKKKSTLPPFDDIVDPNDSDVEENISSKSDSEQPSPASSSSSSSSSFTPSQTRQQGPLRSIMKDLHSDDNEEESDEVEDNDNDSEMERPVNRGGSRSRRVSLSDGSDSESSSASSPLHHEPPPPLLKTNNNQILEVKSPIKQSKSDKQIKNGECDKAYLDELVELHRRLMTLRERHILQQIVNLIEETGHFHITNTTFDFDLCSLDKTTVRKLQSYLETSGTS
# HNF4A DNA FP: change in binding of human HNF4 alpha to DNA; activity change, % at 10 µM; AID 1224865; HNF4a-FITC DNA binding, fluorescence polarization, 1 h; 0.3% of 360,000 active; P41235; in the data active = activity change above about 30%, passing the limit was not always enough;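 also: controls were the assay level and a saturating level of protein; the project sought stronger binding though the title names inhibitors; some compounds called inactive have numbers as strong as hits; positive values seem to mean higher polarization but the record does not say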
# Target sequence (P41235 whole entry, looked up): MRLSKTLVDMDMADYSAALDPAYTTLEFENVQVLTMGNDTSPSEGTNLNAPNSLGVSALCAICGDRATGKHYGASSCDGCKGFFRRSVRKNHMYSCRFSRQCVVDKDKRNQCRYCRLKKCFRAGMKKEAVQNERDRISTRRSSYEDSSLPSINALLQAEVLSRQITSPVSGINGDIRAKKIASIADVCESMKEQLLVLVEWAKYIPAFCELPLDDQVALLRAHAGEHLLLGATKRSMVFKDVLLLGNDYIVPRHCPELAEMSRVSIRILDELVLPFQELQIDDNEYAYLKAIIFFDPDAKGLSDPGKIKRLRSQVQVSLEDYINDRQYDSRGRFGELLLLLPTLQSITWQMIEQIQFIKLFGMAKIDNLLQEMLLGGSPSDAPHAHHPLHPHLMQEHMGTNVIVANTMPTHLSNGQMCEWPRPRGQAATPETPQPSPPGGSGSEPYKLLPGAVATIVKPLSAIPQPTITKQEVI
# rRNA inh HTS: inhibitors of bacterial rRNA selective over humanized ribosomes; AID 720706; E. coli WT GFP vs humanized-ribosome RFP mutants, fluorescence, 24 h; stronger effect = lower value; DMSO median 0, no signal -100; GFP signal change (wild-type ribosome), % (test concentration not listed); 1.6% of 350,000 active;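 active = significant combined selectivity score with lowered wild-type GFP, culture density cut under 30%, mutant RFP and density less affected; inactive = any of these conditions unmet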; also: one replicate is shown; some compounds called inactive have numbers as strong as hits
# ALR inh: blocks human ALR sulfhydryl oxidase activity; P55789; purified ALR, DTT oxidation, H2O2 HRP-luminol luminescence; inhibition, % (concentration not given with the values); 3.8% of 290,000 active; AID 485317;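 active = mean and each replicate at 75% or more; inconclusive = only one of the two met; inactive = neither met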;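 also: stock transfer was 7.5 nL into about 7.5 µL; 0% = neutral wells and 100% = wells with inactivated enzyme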
# Vif TR-FRET: HIV-1 Vif–A3G interaction blockers – biochemical, TR-FRET, GST-Vif 1-94, biotin-A3G peptide, dose response retest, primary screen (AID 1117319); TR-FRET GST-Vif / biotin-A3G peptide binding; higher % means a stronger effect; test concentration not given here; strong numbers were not always called active; inhibition, %, or IC50 in µM where a hit was titrated; 0.57% of 260,000 active;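 active = above the screen mean plus three standard deviations and confirmed in dose response; inconclusive = results disagree or hit not tested in dose response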;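 also: Vif residues 1-94 fused to GST binding biotinylated APOBEC3G peptide 110-148; 0% = full assay without inhibitor and 100% = GST in place of GST-Vif; retest series ran down from 100 µM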
# E coli growth: inhibitors of Escherichia coli growth. OD600, 23 h; stronger effect = lower value. OD600 absorbance (concentration not given with the values). 0.21% of 330,000 active. AID 1053175;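 active = OD600 absorbance below the run mean of sample wells minus 3.6 SD, in any replicate, cut at about 0.56 in these data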;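 also: stock transfer was 300 nL into about 60 µL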
# rRNA inh HTS OD600: also measured in rRNA inh HTS; calls as there; OD600 change, %; measured here: OD600 growth;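 optical density of the mix in the first replicate; 0 = DMSO median and -100 = no signal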
# rRNA inh HTS RFP: second read-out of rRNA inh HTS, no call of its own (marks repeat the call); RFP signal change, %; measured here: RFP humanized mutant strains;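 first replicate; 0 = DMSO median and -100 = no signal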
# Active calls of the source: *; i = inactive; ? = inconclusive; / = not tested or not shown.
FGF22 binding	AF4-AF9 inh	HNF4A DNA FP	rRNA inh HTS	rRNA inh HTS OD600	rRNA inh HTS RFP	ALR inh	Vif TR-FRET	E coli growth	canonical_smiles
i	-1.7	3.3	-27*	1.0*	-6.8*	6	/	0.72	COCC(C)n1c(SCc2cc(=O)n3cc(C)ccc3n2)nc2ccccc2c1=O (stereo not drawn)
i	8.0	1.2	19	6	-8.6	-30	8%	0.7	COC(=O)C(C)N(C#N)c1nc(C)nc(C)n1 (stereo not drawn)
/	/	3.7	/	/	/	38	-11%	0.72	Cc1cccc(NC(=S)NC2CCCCCC2)c1C
i	2.3	-1.1	-2	-11	-2.5	98*	2%	0.65	COc1ccc(NC(=O)CSc2ccc3c(c2)OCCO3)cc1
/	/	0.1	/	/	/	?	31%	0.64	S=C(NCCN1CCOCC1)Nc1ccc(Br)cc1
i	0.5	-1.8	0	-4	-3.6	-5	-4%	0.62	O=C(Cn1c2ccc(F)cc2c2nc3n(c(=O)c21)CCS3)NC1CCCC1
/	/	0.8	/	/	/	-6	73%	0.74	CCN(CC)CCNC(=O)Cc1c(C(=O)O)n(C)c2ccccc12
/	/	-1.4	/	/	/	-2	1%	0.62	O=C(NCCCN1CCN(c2ccccc2F)CC1)Nc1ccc(F)cc1
/	/	-0.6	/	/	/	-4	-8%	0.69	Cc1ccccc1Cn1cc(NC(=O)CSc2nc3c(c(C(F)(F)F)n2)CCc2ccccc2-3)cn1
i	-2.0	6.9	6	10	-0.7	2	-4%	0.67	Cc1ccnc(S(=O)(=O)Cc2ccc([N+](=O)[O-])cc2)n1
i	4.3	0.4	-5	0	-0.4	37	/	0.66	CN(C)c1ccc(C(CNC(=O)c2ccco2)N2CCCC2)cc1 (stereo not drawn)
i	0.0	2.2	-11	-39	-4.5	-4	/	0.74	CSc1ccc(CN(C)C(=O)C(Cc2ccccc2)NC(=O)c2ccccc2)cc1 (stereo not drawn)
/	/	-1.1	/	/	/	-15	-1%	0.69	CCc1cc(=O)[nH]c(SC/C=C/c2ccccc2)n1
i	-1.2	-2.0	-1	1	-5.1	38	1%	/	NC(=S)N/N=C/c1ccccc1O
/	/	-5.0	/	/	/	-10	2%	0.69	CCn1c(Cc2ccccc2)nnc1SCC(=O)NC1CC1
i	3.4	/	-16	0	12	/	/	/	CCS(=O)(=O)N1CCCCN2[C@@H](CO)[C@@H](c3ccc(-c4ccc(C#N)cc4)cc3)[C@@H]2C1
i	0.1	-16	6	9	2.3	6	/	0.67	COCC1CCN(Cc2c(C(=O)N3CCc4ccccc4C3)nc3ccc(Cl)cn23)C1 (stereo not drawn)
i	-0.3	/	-4	-12	-0.3	/	/	/	CCCC(=O)N1CCC2(CC1)CN(S(=O)(=O)c1ccc(C)cc1)[C@@H](CO)c1[nH]c3cc(OC)ccc3c12
i	4.8	7.3	4	-4	0.0	/	5%	0.71	COC(=O)[C@]1(C)N[C@H](CN(C)S(=O)(=O)c2ccc(C(F)(F)F)cc2)[C@@H]2C(=O)N(C)C(=O)[C@@H]21
i	-0.8	0.7	-7	-4	0.5	-7	7%	0.69	CCCc1c(C(=O)O)cnn1-c1ccc(Cl)cc1
i	-2.0	-1.7	5	13	-0.9	-3	-1%	0.74	NC(=O)c1ccc(NC(=O)COc2cccc3ccccc23)cc1
i	3.4	1.7	11	3	-1.8	36	5%	0.68	Nc1ncnc(N2CCOCC2)c1N
i	0.5	/	4	3	-0.6	/	/	/	CO[C@@H]1CN(C)C(=O)c2cc(NC(=O)c3cnccn3)ccc2OC[C@@H](C)N(CCC(F)(F)F)C[C@H]1C
i	-0.6	/	-1	1	0.5	/	/	/	COc1ccc(CN2C[C@@H](O)COC[C@H]3O[C@@H](CC(=O)NCc4ccncn4)CC[C@@H]32)cc1
/	/	2.5	/	/	/	-23	3%	0.66	COc1ccccc1NC=C1C(=O)OC(C)(C)OC1=O
i	1.0	/	-4	-20	4.3	/	/	/	CCCC(=O)Nc1ccc2c(c1)OC[C@H](C)N(Cc1cccc(F)c1)C[C@H](C)[C@@H](OC)CN(C)C2=O
i	-0.9	1.8	6	13	-3.0	-11	-2%	0.7	O=C(CSc1nc2ccccc2o1)N1CCOCC1
i	0.3	/	-43	-60	31	/	/	/	O=S(=O)(c1ccccc1)N1C[C@H]2[C@@H](c3ccccc31)[C@@H](CO)N2Cc1ccc(F)cc1
i	0.5	-2.4	9	1	16	/	0%	/	CCN(c1ccc2c(c1)OCO2)S(=O)(=O)c1cc2c(cc1Br)CCN2C(=O)C1CC1
i	-1.0	/	-2	9	-3.6	/	/	/	C[C@H](CO)N1C[C@H](C)[C@H](CN(C)Cc2ccccc2)Oc2ccc(NC(=O)Cn3cnnn3)cc2CC1=O

# For reference, two of the compounds above.
FGF22 binding	AF4-AF9 inh	HNF4A DNA FP	rRNA inh HTS	rRNA inh HTS OD600	rRNA inh HTS RFP	ALR inh	Vif TR-FRET	E coli growth	canonical_smiles
i	-0.6	/	-1	1	0.5	/	/	/	COc1ccc(CN2C[C@@H](O)COC[C@H]3O[C@@H](CC(=O)NCc4ccncn4)CC[C@@H]32)cc1
/	/	2.5	/	/	/	-23	3%	0.66	COc1ccccc1NC=C1C(=O)OC(C)(C)OC1=O

# Further entries follow.
FGF22 binding	AF4-AF9 inh	HNF4A DNA FP	rRNA inh HTS	rRNA inh HTS OD600	rRNA inh HTS RFP	ALR inh	Vif TR-FRET	E coli growth	canonical_smiles
i	-4.5	/	2	3	-1.9	/	/	/	C[C@@H]1CCCCO[C@H](CN(C)Cc2ccc(C(=O)O)cc2)[C@H](C)CN([C@@H](C)CO)C(=O)c2cc(N(C)C)ccc2O1
i	0.9	/	2	7	0.3	/	/	/	C[C@@H]1CCCCO[C@@H](CN(C)C(=O)CCCN(C)C)[C@H](C)CN([C@H](C)CO)C(=O)c2cc(NC(=O)C3CCCCC3)ccc2O1
i	-1.7	/	2	5	-0.8	/	/	/	CCCNC(=O)N[C@H]1CC[C@H](CC(=O)NC2CCCCC2)O[C@H]1CO
i	-1.3	-0.7	11	15	1.6	-3	/	0.64	CCC(Sc1nc2ccccc2c(=O)[nH]1)C(=O)Nc1ccc(C(C)=O)cc1 (stereo not drawn)
i	-1.7	1.0	-3	6	3.3	-13	-1%	0.7	CNC(=O)c1[nH]nc2c1CCc1cc(OC)ccc1-2
i	-9.2	/	-1	-2	2.4	/	/	/	CC(=O)O[C@H]1C=C[C@@H](C#Cc2ccc(C(C)(C)C)cc2)O[C@@H]1COC(=O)Nc1ccccc1
i	-2.6	/	0	12	-1.5	/	/	/	C[C@@H]1CCCCO[C@H](CN(C)C(=O)NC2CCCCC2)[C@@H](C)CN([C@H](C)CO)C(=O)c2cc(NC(=O)c3ccncc3)ccc2O1
i	-6.0	-1.3	14	8	6.7	/	13%	0.7	CCOC(=O)c1nn(-c2ccccc2F)c2nc(-c3ccco3)c(C#N)c(=O)n12
/	/	2.8	/	/	/	43	9%	0.69	O=C(O)COc1ccccc1O
/	/	11	/	/	/	2	-2%	0.72	Cc1ccccc1NC(=O)C1c2cccc[n+]2CC(=O)N1c1c(C)cccc1C (stereo not drawn)
i	-0.4	0.5	13	18	-1.4	-1	/	0.69	Cn1c(CNC(=O)CCNC(=O)c2cccc(Br)c2)cc(=O)n(C)c1=O
i	-1.1	2.3	-7	-4	-2.9	-2	-2%	0.67	Cc1onc(-c2c(F)cccc2Cl)c1C(=O)c1ccc(F)cc1
i	-0.1	0.9	-16	-20	4.1	-1	-1%	0.7	Cc1ccc(S(=O)(=O)N2CCCCC2CCNC(=O)C(=O)NC2CCCC2)cc1 (stereo not drawn)
i	-5.4	/	4	3	-2.1	/	/	/	C[C@@H]1CN([C@H](C)CO)C(=O)Cc2cc(NC(=O)CCN3CCOCC3)ccc2O[C@H]1CN(C)S(=O)(=O)c1cn(C)cn1
i	0.5	0.8	12	6	-0.4	99*	-7%	0.68	CCN(CC)CCCn1c2c(c(SCC(=O)Nc3cccc(C(C)=O)c3)nc1=O)CCC2
i	-1.2	-2.5	6	6	-8.9	-1	-6%	0.64	CC[C@@H](Nc1ncnc2c1oc1ccccc12)C(=O)O
i	-0.2	/	0	0	-0.7	/	/	/	Cc1ccc(S(=O)(=O)N2CC[C@@H]3[C@@H](CO)N(C)c4ccc(-c5ccc(C#N)cc5)cc4[C@@H]32)cc1
i	2.4	0.5	9	8	0.6	/	-5%	0.72	CC[C@]12c3[nH]c4ccc(OC)cc4c3CCN1C(=O)C(CC(=O)NCCC1=CCCCC1)C[C@@H]2C(=O)N1CCN(C(=O)C2CC2)CC1 (stereo partly drawn)
i	-1.5	1.4	-20	-22	-2.7	/	1%	0.71	Cc1ccc(C)c(N2CCN(C(=O)CCc3nc(-c4ccccc4)no3)CC2)c1
/	/	1.1	/	/	/	11	3%	/	C/C(=N/NS(=O)(=O)c1ccc(F)cc1)c1ccc(NC(=O)c2ccc(C)o2)cc1
i	-2.2	-4.1	2	-2	-2.7	-2	/	0.71	CC(C)c1ccc2oc(=O)cc(CN3CCOCC3)c2c1
i	1.6	/	3	-7	13	/	/	/	COc1ccc(CN(C)C[C@@H]2Oc3ccc(NC(=O)Cc4cn(C)c5ccccc45)cc3CC(=O)N([C@H](C)CO)C[C@H]2C)cc1
i	-3.9	/	-3	3	3.8	/	/	/	C[C@@H]1CN([C@H](C)CO)C(=O)Cc2cc(NC(=O)Cc3ccccc3)ccc2O[C@H]1CN(C)Cc1ccccc1
i	-0.3	2.5	-10	-17	-3.2	2	/	0.71	CN(Cc1ccco1)C(=O)C1CCCN(c2ncnc3c2nc2n3CCCCC2)C1 (stereo not drawn)
i	-1.5	-3.0	2	8	1.8	-3	-3%	0.69	Cc1ccc(CC(=O)O/N=C(\N)c2cccc([N+](=O)[O-])c2)cc1
i	11	4.0	-1	0	0.3	1	/	0.67	CC(=O)N1CCN(S(=O)(=O)c2cccc(C(=O)NCCc3ccc(Cl)cc3)c2)CC1
i	-5.6	/	-1	-7	18	/	/	/	COCC(=O)N1CCCCN2[C@H](CO)[C@@H](c3ccc(C#Cc4ccc(OC)cc4)cc3)[C@@H]2C1
/	/	1.3	/	/	/	/	70%	0.72	CN1CCN(C(=O)C2CCN(S(=O)(=O)c3cnc[nH]3)CC2)CC1
i	-0.3	0.3	9	6	-0.1	-8	4%	0.62	CS(=O)(=O)c1cccc(-c2nnc(NC(=O)C3=COCCO3)o2)c1
i	2.9	/	4	-1	-1.7	/	/	/	C[C@@H]1CN([C@H](C)CO)S(=O)(=O)c2ccc(C#Cc3ccccc3)cc2O[C@@H]1CN(C)C(=O)Nc1ccc2c(c1)OCO2

# (continued)
FGF22 binding	AF4-AF9 inh	HNF4A DNA FP	rRNA inh HTS	rRNA inh HTS OD600	rRNA inh HTS RFP	ALR inh	Vif TR-FRET	E coli growth	canonical_smiles
/	/	-1.0	/	/	/	-4	22%	0.67	COc1ccc(Nc2ncc(C(=O)N3CCN(Cc4ccccc4)CC3)c3ccccc23)cc1
i	2.3	/	1	4	0.6	/	/	/	O=C(Nc1ccc2c(c1)OCO2)N[C@H]1CC[C@@H](CCNC(=O)C2CCCCC2)O[C@@H]1CO
i	0.4	/	-2	-5	-0.5	/	/	/	O=C(C[C@H]1C=C[C@H](NC(=O)CN2CCOCC2)[C@H](CO)O1)NCc1cccc(F)c1
i	-3.3	0.1	1	5	-0.4	-2	/	0.68	COc1c(C)cccc1C(=O)NCCCNC(=O)c1ccc(C)nc1
i	2.4	0.4	9	11	1.6	-9	-1%	/	CC(C)(C)NC(=O)CCN(/N=C/c1ccncc1)C1=NS(=O)(=O)c2ccccc21
i	-6.1	/	-3	-8	-0.4	/	/	/	C[C@H](CO)N1C[C@H](C)[C@@H](CN(C)S(=O)(=O)c2ccccc2)OCCCC[C@H](C)Oc2ccc(NC(=O)NC3CCCCC3)cc2C1=O

# Some of the compounds tested; count on the stated rates, not on these rows.
